# Bioassay records as filed in PubChem.
# KCNQ2 enhance = potentiators of rat KCNQ2 potassium channel. Potassium voltage-gated channel subfamily KQT member 2 (Rattus norvegicus), O88943. CHO-K1 KCNQ2, FluxOR thallium flux fluorescence; active compounds read high. B-score at 10 µM. actives 0.54% (n = 310,000). AID 2239, 2010;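 active = fluorescence ratio B-score at least 3 SD of library B-scores, with initial fluorescence B-score within 3 SD, cut at about 5.3 in these data; same plate scores as AID 2156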;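 also: B-score of peak minus minimum over baseline fluorescence ratio after K+ and Tl+ stimulus; positive B-score means potentiation of KCNQ2 with more thallium influx and brighter signal; only the inactives scoring about 0 or higher are listed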
# Target sequence (O88943 whole entry, looked up): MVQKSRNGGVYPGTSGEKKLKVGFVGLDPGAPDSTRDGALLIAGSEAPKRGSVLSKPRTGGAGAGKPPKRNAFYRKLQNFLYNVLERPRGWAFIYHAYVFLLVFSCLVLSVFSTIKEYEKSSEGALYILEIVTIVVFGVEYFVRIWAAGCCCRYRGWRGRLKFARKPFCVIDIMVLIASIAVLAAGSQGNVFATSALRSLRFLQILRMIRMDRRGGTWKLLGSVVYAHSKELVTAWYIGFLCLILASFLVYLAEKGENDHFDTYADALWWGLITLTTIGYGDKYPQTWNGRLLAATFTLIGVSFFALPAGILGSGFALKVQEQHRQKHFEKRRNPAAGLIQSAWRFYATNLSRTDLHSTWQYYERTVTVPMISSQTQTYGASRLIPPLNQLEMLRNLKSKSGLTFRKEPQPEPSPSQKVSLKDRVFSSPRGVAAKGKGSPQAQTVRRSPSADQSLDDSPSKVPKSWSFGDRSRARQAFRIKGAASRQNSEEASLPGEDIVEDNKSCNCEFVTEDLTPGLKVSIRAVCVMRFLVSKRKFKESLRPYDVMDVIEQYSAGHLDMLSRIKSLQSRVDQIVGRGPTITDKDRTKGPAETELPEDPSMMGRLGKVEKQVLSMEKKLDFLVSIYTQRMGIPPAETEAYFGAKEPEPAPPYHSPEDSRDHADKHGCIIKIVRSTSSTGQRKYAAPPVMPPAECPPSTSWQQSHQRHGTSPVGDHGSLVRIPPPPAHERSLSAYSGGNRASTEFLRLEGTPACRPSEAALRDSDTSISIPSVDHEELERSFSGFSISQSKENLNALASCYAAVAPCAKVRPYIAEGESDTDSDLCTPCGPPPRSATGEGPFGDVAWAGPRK
# KCNQ2 enhance baseline = further read-out of KCNQ2 enhance, marked with its call; B-score; compound at 10 µM; measured here: initial fluorescence intensity artifact check;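 brightness before thallium and not channel activity; 0 = typical well and far values either way flag optical interference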
# * hit, by the source's call. The list is partial. The share of hits here may be higher or lower than overall.
SMILES,KCNQ2 enhance,KCNQ2 enhance baseline
Cn1nc(C(=O)NC2CCCN(Cc3ccccc3F)C2)c2ccccc2c1=O (stereo not given),0.05,0.99
Cc1cccc(-n2ccnc2CN2CCN(C3CCCC3)C(CCO)C2)c1 (stereo not given),0.05,-0.23
Cc1ccccc1CN1[C@@H]2c3ccccc3C[C@@H]2OCCS1(=O)=O,1,0.12
CCOc1ccc(N2CC(NC(=O)c3cccc4ccccc34)CC2=O)cc1 (stereo not given),0.69,-0.03
CCC(C)NS(=O)(=O)c1ccc(S(=O)(=O)N(CC(=O)Nc2ccccc2)Cc2ccco2)cc1 (stereo not given),0.74,-1.4
CC(C)c1nnc(NC(=O)CCC(=O)NCc2cccs2)s1,1.8,0.02
FC(F)(F)c1cccc(CNc2ncccc2-c2nc3cc(Cl)ccc3o2)c1,0.26,-2.4
NS(=O)(=O)c1ccc(NC(=S)NC(=O)/C=C/c2ccco2)cc1,0.65,1.8
Cc1cccc(OCCCCCn2ccnc2)c1C,0.63,0.82
CCOC(=O)C1(Cc2ccc(OC)cc2)CCN(C(=O)CN2CCOC2=O)CC1,0.71,-0.34
O=C(Nc1ccccc1)c1ccc(-c2ccccc2Cl)o1,1.2,0.29
COc1cc(SC)ccc1C(=O)OC(C)C(=O)Nc1ccc(NC(C)=O)cc1 (stereo not given),0.93,0.08
Cc1nc2ccc(NC(=O)c3ccc(F)c(S(=O)(=O)N4CCOCC4)c3)cc2s1,1.7,-0.98
CC1CCCCC1NC(=O)CCCCCn1c(=S)[nH]c2ccsc2c1=O (stereo not given),0.11,1.4
O=S(=O)(c1cccc(-c2n[nH]c(=S)o2)c1)N1CCOCC1,0.99,0.09
O=C(N/N=C/c1ccccc1)c1ccc(N2CCCC2=O)cc1,2,-1.7
CCOC(=O)CC(=O)CSc1ccc2nnc(-c3ccc(F)cc3)n2n1,0.91,-0.65
COc1cccc(NC(=O)CSc2nnc(-c3ccc(C)cc3)o2)c1,1,1.6
CC1=C(C(=O)Nc2cc(C(=O)NCCCOC(C)C)ccc2C)SCCO1,0.1,-2.3
Cc1ccc(S(=O)(=O)CC(=O)c2ccc3c(c2)OCCO3)cc1,0.92,1.2
CC(C)CNS(=O)(=O)c1ccc(OCC(=O)Nc2ccc(F)cc2F)cc1,0.13,2.2
CC(=O)Nc1ccc(S(=O)(=O)NCc2csc(C)n2)cc1,0.83,-1.4
O=C(CCN1C(=O)c2ccccc2C1=O)C1=NN[C@@H]2C(=O)N(c3cccc(F)c3)C(=O)[C@H]12,0.71,0.32
C/C(N)=C(/C#N)C(=O)CSc1nnc(Cc2ccccc2F)n1N,0.01,0.02
O=C1CC(NS(=O)(=O)c2cccnc2)CN1c1ccc(Cl)cc1 (stereo not given),0.54,-0.15
COC(=O)C1CCN(C(=O)CN(C)Cc2ccc(C(C)(C)C)cc2)CC1,0.01,-0.47
COc1ccccc1N1CCN(C(=O)CCn2c(=O)[nH]c3ccsc3c2=O)CC1,1.8,0.48
O=C(CC1SC(=O)N(Cc2ccccc2Cl)C1=O)Nc1nccs1 (stereo not given),1.2,-1.4
Cc1ccc(CN2C(=O)CCC2C(=O)NCC2CCCO2)cc1 (stereo not given),0.76,0.43
COc1ccccc1N1CCN(C(=O)/C=C/c2c(Cl)nc3ccccn23)CC1,0.68,-1.8
Cc1nnc(SCc2nc(N)nc(Nc3ccccc3)n2)s1,0.25,-2
Cc1cc(C)n(-c2nnc(C)n2NS(C)(=O)=O)n1,0.53,0.74
Cn1c(SCc2ccc(C#N)cc2)nnc1-c1ccccc1,0.02,-0.25
COc1ccc(NC(=O)CSCC(=O)Nc2cc(Cl)ccc2N2CCOCC2)cc1,4.7,0.68
Cc1ccc(S(=O)(=O)NCC(=O)OCC(=O)Nc2ncc(Cl)cc2Cl)cc1,0.74,0.42
COc1ccc(/C=C(/NC(=O)c2ccccc2)C(=O)N/N=C/c2ccncc2)c(OC)c1,1.1,2.2
COCCNC(=S)Nc1cc2oc3ccccc3c2cc1OC,0.05,1.1
CC1(C)Cc2cccc(OCC(N)=O)c2O1,1.5,-1.7
Cc1cc(C(=O)CSc2nnnn2-c2ccccc2)c(C)n1CCc1ccccc1,0.14,-1.4
CCC(=O)Nc1ccc(NC(=O)CSc2nnnn2C2CCCC2)cc1C,1.9,-0.12
O=C(Nc1ccnn1C1CCN(C2CCCCC2)CC1)c1cccc(F)c1,2,2.3
C/C(=N/NC(=O)c1cccs1)c1cccc(N)c1,0.12,0.73
c1ccc2c(c1)CC1(CCCC1)n1nnnc1-2,0.69,-1.4
COc1ccc([N+](=O)[O-])cc1COc1ccc2c(-c3ccccc3)cc(=O)oc2c1,0.54,1.4
COc1cc(/C=N/N=C/c2cc(OC)c(O)c(OC)c2)cc(OC)c1O,0.68,0.32
COC(=O)c1nnn(CC(=O)NC(=O)Nc2cccc(C)c2C)c1C(=O)OC,0.04,-0.34
COc1cc(/C=C/C(=O)Nc2cccc(S(=O)(=O)NC3=NCCCCC3)c2)ccc1OCC#N,0.59,-0.67
Cn1nnnc1SCC(=O)Nc1ccccc1C(=O)NCc1ccccc1,0.71,0.69
O=C(NC1CCCC1)C1CC(=O)N(c2ccccc2)C1 (stereo not given),0.18,0.64
Cc1sc(NC(=O)C2CCCC2)c(C#N)c1C,0.43,-1.2
# (further entries)
SMILES,KCNQ2 enhance,KCNQ2 enhance baseline
CCOc1ccc2cc(C#N)c(SCC(=O)N3CCOCC3)nc2c1,2.3,0.06
CCCn1c(SCC(=O)NCc2ccco2)nc2c1c(=O)n(C)c(=O)n2C,0.24,2.9
O=C(Nc1ccc2c(c1)OCO2)C1CC(=O)N(c2ccc(F)cc2)C1 (stereo not given),0.44,0.05
COCCn1c(SCC(=O)N2CCCC2)nnc1-c1ccco1,1.4,0.1
c1nc(NC2CCCC2)c2[nH]cnc2n1,0.8,-0.8
COc1ccccc1N1CCN(S(=O)(=O)CCNC(=O)CC2CCCCC2)CC1,1.9,-0.01
CCOC(=O)c1sc(NC(=O)CSc2nnnn2-c2ccccc2)c(C(=O)OCC)c1C,1.7,0.47
Cc1cc(O)cc(O)c1C(=O)Cc1ccccc1,0.12,0.41
COc1ccc(Cn2cc([N+](=O)[O-])nc2C)cc1[N+](=O)[O-],0.32,-0.66
CNS(=O)(=O)c1ccc(NC(=O)Nc2ccc3c(c2)OCO3)cc1,0.48,-0.01
CCOc1ccc(N2C(=O)CC(Cc3ccc(Br)cc3)C2=O)cc1 (stereo not given),0.44,0.13
Cc1cccc(OCC(=O)N(Cc2ccc(C)o2)C2CCS(=O)(=O)C2)c1 (stereo not given),0.68,1.6
COc1ccc(S(=O)(=O)n2nc(OC(=O)c3c(-c4ccccc4Cl)noc3C)cc2N)cc1,1,0.26
CN(C)CCNC(=O)CCCNC(=O)Cn1cnc2sc3c(c2c1=O)CCCC3,0.36,0.97
O=C(Nc1ccccc1)/C(=C\c1ccncc1)NC(=O)c1ccccc1,0.09,-0.06
CCCC(O)(CCC)C(=O)NNc1ccccc1,0.12,0.05
O=C(Nc1ncc2c(n1)CC(c1ccccc1)CC2=O)c1ccco1 (stereo not given),0.61,-2.5
CN(C)N1C(=O)CC(N2CCCC2)C1=O (stereo not given),1.3,-2.4
COc1ncccc1-c1nnn(-c2ccccc2Br)n1,0.49,-0.3
COc1ccccc1Oc1nc([N+](=O)[O-])nn1CC(N)=O,0.4,0.7
CCCCC1=CC2=CC(=O)C(C)(OC(=O)c3ccco3)C(=O)C2=CO1 (stereo not given),2.2,2.5
CCOC(=O)N1CCC(N2C(=O)c3ccccc3C2Nc2cccnc2)CC1 (stereo not given),0.03,0.7
Cc1ccsc1C(=O)NCCc1c[nH]c2ccccc12,0.21,0.77
Cc1ccccc1-c1nc(-c2ccc(NC(=O)c3cccs3)cc2)no1,0.25,0.44
Cc1cc(C)cc(NC(=S)NCc2ccncc2)c1,0.06,-0.86
Nc1nc2cc3ccccc3cc2[nH]c1=O,0.09,-0.28
COc1ccc2cnn(-c3ccccc3)c(=O)c2c1OC,1,0.09
O=C(Cn1c(=O)c2cccn2c2ccccc21)NCCc1ccccc1,0.12,1.6
COc1cccc(CN(C(=O)COc2ccccc2[N+](=O)[O-])C2CCS(=O)(=O)C2)c1 (stereo not given),0.77,-3.9
CCOC(=O)c1c(C)[nH]c(C(=O)OCC(=O)Nc2cc(C)c(Cl)cc2OC)c1C,2.1,-0.45
COc1ccccc1OC(C)C(=O)Nc1ccc(S(=O)(=O)Nc2nccs2)cc1 (stereo not given),0.38,-2.2
COc1ccc(C(=O)NCc2ccc(S(N)(=O)=O)cc2)cc1[N+](=O)[O-],0.36,-0.15
CCCC(=O)NC(=S)Nc1ccc(N2CCN(C(=O)c3cccs3)CC2)cc1,1.1,-1.8
CCOc1ccc(CCNS(=O)(=O)c2cc3c(cc2C)NC(=O)CO3)cc1OCC,0.42,-1.1
Cc1ccnc(NC(NC(=O)C(C)C)(C(F)(F)F)C(F)(F)F)c1,0.87,-0.47
CSc1ccc(C(=O)N2CCC(CCC(=O)NCc3ccc(F)cc3)CC2)cc1,0.03,-3
CN(Cc1c(C(=O)N/N=C/c2ccc(O)cc2)nnn1-c1nonc1N)c1ccccc1,0.18,-0.31
O=C(NCCc1csc(-c2cccnc2)n1)c1ccco1,0.51,-0.6
Cc1ccc(O)c(N=Cc2sc3ccccc3c2Cl)c1,0.04,-0.02
CCOC(=O)c1nc2nc(C)cc(=O)n2[nH]1,0.67,-0.56

# Given bar-delimited: 16 of the compounds above
molecule | KCNQ2 enhance | KCNQ2 enhance baseline
CCOC(=O)N1CCC(N2C(=O)c3ccccc3C2Nc2cccnc2)CC1 (stereo not given) | 0.03 | 0.7
Cc1ccsc1C(=O)NCCc1c[nH]c2ccccc12 | 0.21 | 0.77
Cc1ccccc1-c1nc(-c2ccc(NC(=O)c3cccs3)cc2)no1 | 0.25 | 0.44
Cc1cc(C)cc(NC(=S)NCc2ccncc2)c1 | 0.06 | -0.86
Nc1nc2cc3ccccc3cc2[nH]c1=O | 0.09 | -0.28
COc1ccc2cnn(-c3ccccc3)c(=O)c2c1OC | 1 | 0.09
O=C(Cn1c(=O)c2cccn2c2ccccc21)NCCc1ccccc1 | 0.12 | 1.6
COc1cccc(CN(C(=O)COc2ccccc2[N+](=O)[O-])C2CCS(=O)(=O)C2)c1 (stereo not given) | 0.77 | -3.9
CCOC(=O)c1c(C)[nH]c(C(=O)OCC(=O)Nc2cc(C)c(Cl)cc2OC)c1C | 2.1 | -0.45
COc1ccccc1OC(C)C(=O)Nc1ccc(S(=O)(=O)Nc2nccs2)cc1 (stereo not given) | 0.38 | -2.2
COc1ccc(C(=O)NCc2ccc(S(N)(=O)=O)cc2)cc1[N+](=O)[O-] | 0.36 | -0.15
CCCC(=O)NC(=S)Nc1ccc(N2CCN(C(=O)c3cccs3)CC2)cc1 | 1.1 | -1.8
CCOc1ccc(CCNS(=O)(=O)c2cc3c(cc2C)NC(=O)CO3)cc1OCC | 0.42 | -1.1
Cc1ccnc(NC(NC(=O)C(C)C)(C(F)(F)F)C(F)(F)F)c1 | 0.87 | -0.47
CSc1ccc(C(=O)N2CCC(CCC(=O)NCc3ccc(F)cc3)CC2)cc1 | 0.03 | -3
CN(Cc1c(C(=O)N/N=C/c2ccc(O)cc2)nnn1-c1nonc1N)c1ccccc1 | 0.18 | -0.31

# (further entries)
SMILES,KCNQ2 enhance,KCNQ2 enhance baseline
CCn1cc(C2=NCC(C)O2)c2ccccc21 (stereo not given),0.55,0.72
Cc1c(/C(O)=C2\C(=O)C(=O)N(CCN(C)C)C2c2cccs2)cnn1-c1ccccc1 (stereo not given),0.58,-2.3
CCOc1ccc(C(=O)OCC(=O)N2CCOCC2)cc1OCC,0.11,-1.4
O=C(N/N=C\c1ccncc1)c1ccc(Cl)s1,0.2,0.04
COc1ccc(NC(=O)c2sc3nc(N4CCCC4)c4c(c3c2N)CC(C)(C)OC4)cc1,0.78,1.2
Cc1cc(C)c(C#N)c(SCS(=O)Cc2ccccc2)n1 (stereo not given),0.99,-2.9
Cc1ccc(CCN2CC(C(=O)N3CCN(c4ccc(F)cc4)CC3)CC2=O)cc1 (stereo not given),1.1,2.4
O=C(NC1CCCCCC1)C1CCN(S(=O)(=O)c2ccc(F)cc2)CC1,1.6,-3.3
COCCNCCCCOc1ccc(Br)cc1C,0.32,-0.29
O=C(COC(=O)c1cccs1)Nc1ccccc1,0.74,0.04
Cc1ccc(C(=O)OCC(=O)NCCNC(=O)COC(=O)c2ccc(C)s2)s1,1.7,-1.3
CC(C)[C@@H]1NC(=O)c2cc([N+](=O)[O-])cc(I)c2NCCC[C@@H](C(=O)NC(CC(=O)O)C(N)=O)NC(=O)[C@H](CO)NC1=O (stereo not given in full),0.02,-0.49
COc1ccc(Cc2nnc(NC(=O)C3CC(=O)N(c4ccccc4)C3)s2)cc1OC (stereo not given),0.61,-0.53
O=C(O)c1ccc(NC(=O)c2ccc(COc3ccc(Cl)cc3)o2)cc1,2.1,0.01
CCOC(=O)C1=C(c2ccccc2)Nc2ncnn2C1c1ccc(C(=O)O)cc1 (stereo not given),0.01,0.24
CC(Oc1ccc2c(c1)oc(=O)c1ccccc12)C(=O)NC(Cc1c[nH]c2ccc(O)cc12)C(=O)O (stereo not given),0.04,-0.31
Cc1cc(C)c(C#N)c(SCC(=O)c2ccc(Cl)cc2Cl)n1,1.3,0.08
COc1cccc(NC(=S)C(C#N)=C2N(C)c3ccccc3N2C)c1,0.02,2.3
CC(CCc1ccccc1)NC(=O)COC(=O)c1ccc(NC(=O)CC#N)cc1 (stereo not given),2.3,0.24
COc1cccc(C(=O)Oc2cc3c4c(c2)C(C)=CC(C)(C)N4C(=O)C3=O)c1,0.28,-0.37
COc1cc(OC)c(-c2nn3c(C4CCCCC4)nnc3s2)cc1OC,0.07,0.13
CCO[C@H]1OC(C(=O)NCc2nc3ccccc3[nH]2)=C[C@@H](C)[C@@H]1CCCO,0.67,-0.53
COCCn1c(SCCCC(=O)c2ccc(Br)cc2)nnc1-c1ccncc1,0.48,-0.67
CCCN(CCC)CCCn1c(=O)[nH]c2ccccc21,1.4,-1.4
